Bioassay records from PubChem.
ALR H2O2 inh – inhibitors of human sulfhydryl oxidase ALR; purified ALR, DTT oxidation, H2O2 HRP-luminol luminescence; inhibition, % (no concentration beside the values); P55789; actives 3.8% (n = 290,000);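 active = mean and each replicate at 75% or more; inconclusive = only one of the two met; inactive = neither met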;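 note: stock transfer was 7.5 nL into about 7.5 µL; 0% = neutral wells and 100% = wells with inactivated enzyme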
Target sequence (P55789 whole entry, looked up): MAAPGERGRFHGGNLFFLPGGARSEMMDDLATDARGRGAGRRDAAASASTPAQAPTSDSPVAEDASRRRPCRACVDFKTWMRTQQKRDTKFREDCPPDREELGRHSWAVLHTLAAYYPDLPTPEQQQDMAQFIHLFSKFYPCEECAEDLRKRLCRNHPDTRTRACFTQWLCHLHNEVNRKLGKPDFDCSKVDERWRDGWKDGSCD
HNF4A DNA FP – change in binding of human HNF4 alpha to DNA | P41235 | HNF4a-FITC DNA binding, fluorescence polarization, 1 h | activity change, % at 10 µM | actives 0.3% (n = 360,000); in the data active = activity change above about 30%, passing the limit was not always enough;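 note: controls were the assay level and a saturating level of protein; the project sought stronger binding though the title names inhibitors; some compounds called inactive have numbers as strong as hits; positive values seem to mean higher polarization but the record does not say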
Target sequence (P41235 whole entry, looked up): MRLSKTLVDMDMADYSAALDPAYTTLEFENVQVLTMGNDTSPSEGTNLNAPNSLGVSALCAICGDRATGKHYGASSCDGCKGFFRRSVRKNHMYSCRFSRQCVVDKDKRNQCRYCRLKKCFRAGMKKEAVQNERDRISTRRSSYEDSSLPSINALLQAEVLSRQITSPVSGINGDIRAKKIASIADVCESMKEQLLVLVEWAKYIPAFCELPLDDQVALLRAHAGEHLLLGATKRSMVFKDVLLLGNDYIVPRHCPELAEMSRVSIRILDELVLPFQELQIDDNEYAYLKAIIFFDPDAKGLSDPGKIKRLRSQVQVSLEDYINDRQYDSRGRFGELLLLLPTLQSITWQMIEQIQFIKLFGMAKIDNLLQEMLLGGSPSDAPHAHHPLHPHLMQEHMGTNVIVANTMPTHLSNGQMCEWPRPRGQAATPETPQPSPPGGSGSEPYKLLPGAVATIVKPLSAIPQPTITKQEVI
Calb FLC – affects C. albicans growth with fluconazole. actives 0.57% (n = 300,000). C. albicans CaCi-2 (fluconazole-resistant clinical isolate) + fluconazole, Alamar Blue growth, 48 h. growth inhibition, % (no concentration beside the values). AID 1979;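 active = most replicates above 75%; inconclusive = exactly half above 75%; inactive = most below 75%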;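 note: all wells also contain fluconazole at 8 µg/ml as a sub-toxic cotreatment; 0% = median of DMSO wells and 100% = median of geldanamycin control wells; wells of about 8 µL received 7.5 nL stock; the first replicate is given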
RanGTP-Imp inh – inhibitors of RanGTP-importin-beta interaction, primary screen, biochemical, FRET, CFP-Ran, YFP-importin-beta, homogeneous. AID 2216. cell-free CFP-Ran/YFP-importin-beta FRET ratio. actives 1.1% (n = 300,000). inhibition, % (no concentration beside the values);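 active = most replicates above 15%; inconclusive = exactly half above 15%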;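 note: 0% = DMSO wells and 100% = Ran loaded with GDP instead of GTP; wells of about 40 µL received 100 nL stock; the first replicate is given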
Vif A3G – HIV-1 Vif–A3G interaction blockers – biochemical, TR-FRET, GST-Vif 1-94, biotin-A3G peptide, dose response retest, primary screen (AID 1117319) | TR-FRET GST-Vif / biotin-A3G peptide binding; higher % means a stronger effect; test concentration not given here; strong numbers were not always called active | inhibition, %; hits with a dose series show IC50 in µM | actives 0.57% (n = 260,000);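 active = above the screen mean plus three standard deviations and confirmed in dose response; inconclusive = results disagree or hit not tested in dose response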;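 note: Vif residues 1-94 fused to GST binding biotinylated APOBEC3G peptide 110-148; 0% = full assay without inhibitor and 100% = GST in place of GST-Vif; retest series ran down from 100 µM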
B2AR ag – human beta-2 adrenergic receptor agonism by FAP | Am2.2-beta2AR cells, FAP receptor internalization, flow cytometry; reference of the scale not given here | response, % (no concentration beside the values) | actives 0.43% (n = 340,000) | AID 504454;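 active = response above a set limit, near 3 SD of response in nonfluorescent compounds, cut at about 42% in these data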;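 note: stock transfer was 100 nL into about 11 µL; a reference agonist was the positive control; negative values mostly stem from fluorescent compounds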
Target sequence (P07550 whole entry, looked up): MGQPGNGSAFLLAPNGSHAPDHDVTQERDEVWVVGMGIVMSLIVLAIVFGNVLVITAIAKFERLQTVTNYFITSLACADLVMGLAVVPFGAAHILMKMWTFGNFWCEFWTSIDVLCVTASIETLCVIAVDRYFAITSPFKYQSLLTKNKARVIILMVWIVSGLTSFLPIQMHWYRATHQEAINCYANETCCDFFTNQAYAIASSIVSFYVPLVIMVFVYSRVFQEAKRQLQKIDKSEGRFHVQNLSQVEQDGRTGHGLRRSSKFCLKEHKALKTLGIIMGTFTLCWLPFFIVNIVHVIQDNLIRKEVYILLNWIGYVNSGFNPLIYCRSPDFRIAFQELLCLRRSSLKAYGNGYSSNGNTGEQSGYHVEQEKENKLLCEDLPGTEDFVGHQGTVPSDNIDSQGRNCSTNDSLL
LANA-H2A inh – blocks KSHV LANA binding to histone H2A/H2B | Q9QR71 | cell-free LANA-H2A/H2B peptide, fluorescence polarization | inhibition, % (test concentration not listed) | actives 0.6% (n = 320,000); in the data active = inhibition mostly above about 10%, no sharp cut-off; inactive = mostly below about 6.7%;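 note: stock transfer was 7.5 nL into about 10 µL; 0% = median of vehicle wells and 100% = median of positive control wells; one replicate is shown; the record names a cut of 25% in any replicate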
Starred values were filed as active, the others as inactive; ? = inconclusive; / = no result given; & = joins results of further samples.

SMILES	ALR H2O2 inh	HNF4A DNA FP	Calb FLC	RanGTP-Imp inh	Vif A3G	B2AR ag	LANA-H2A inh
CCCCn1c(SCC(=O)Nc2oc(C)c3c(C)n[nH]c(=O)c23)nc2cc(S(N)(=O)=O)ccc21	-12	-0.8	-1	0.0	-4%	-12	-4.4
CCc1nc(SCC(=O)c2cccc([N+](=O)[O-])c2)n[nH]1	28	-0.9	15	11	26%	-2	0.4
CCOC(=O)c1cnn2c(C(F)(F)F)cc(-c3ccccc3)nc12	-3	-0.2	7	1.0	-3%	-8	-0.6
CCOC(=O)C1=C(O)C(=O)N(c2ccc(S(N)(=O)=O)cc2)C1c1ccc(Cl)cc1 (centres undefined)	/	3.1	2	7.4	-10%	0	3.1
O=C(CSc1nc2ccccc2c(=O)n1CC1CCCO1)Nc1ccccc1 (centres undefined)	-1	-0.7	-5	3.9	/	-6	-0.7
CCOC(=O)c1c(/N=C/c2ccc(C)cc2O)sc2c1CCN(C)C2	21	-0.3	0	60*	?	-3	8.3
O=C(CNC(=O)c1ccc(Cl)cc1Cl)OCn1nnc2ccccc2c1=O	18	-3.6	3	2.4	-5%	2	-0.8
O=C(NNC(=O)[C@@H]1CCCC[C@@H]1C(=O)O)c1cccs1	-14	-0.1	3	7.7	-4%	7	3.4
COc1cc(/C=C(/NC(=O)c2ccccc2)C(=O)Nc2ccc(O)cc2)c([N+](=O)[O-])cc1OC	99*	2.8	-2	1.3	?	2	-0.2
CC1(C)Cc2ccccc2C(NNC(=O)c2cccnc2)=N1	4	-0.8	14	0.9	1%	3	-1.7
CCCC(=O)c1ccc(N2CCN(S(=O)(=O)c3ccccc3)CC2)c(F)c1	-4	3.7	-4	0.1	-3%	-1	1.0
CC(C)c1ccc(N(CC(=O)NCCSC(C)(C)C)S(C)(=O)=O)cc1	0	-1.4	10	-2.0	0%	-1	-4.9
CCOC(=O)CSc1nc2c(cnn2-c2ccc(Cl)cc2)c(=O)[nH]1	1	-0.7	1	0.9	-5%	5	9.9
Cn1c(CC(=O)Nc2ccccc2Cl)nnc1SCC(=O)Nc1nncs1	-4	-1.1	-3	-1.6	/	2	0.3
Cc1ccc2nc(SCC(=O)c3cc(C)n(C)c3C)[nH]c2c1	?	2.4	0	?	0%	1	9.0
O=C(NCCCn1ccnc1)c1cnn2c1NC(c1ccccc1)CC2C(F)(F)F (centres undefined)	-3	4.3	-8	1.0	-1%	4	-1.8
CCC1CCCCN1CC(=O)c1c(C)[nH]c2cc(C)ccc12 (centres undefined)	-5	8.3	-7	2.2	-9%	4	1.4
CCO[C@@H]1OC(C(=O)Nc2ccccc2)=C[C@H](c2ccc(Br)cc2)[C@H]1CCCO	-8	-3.2	64	0.4	-5%	-4	-0.3
CN(C)c1ccc(C2CC(=O)C=C(Nc3ccccc3N)C2)cc1 (centres undefined)	57	2.1	1	1.3	?	3	2.2
COc1ccc(-n2c(C)cc(C(=O)CSc3nnc(-c4cccs4)o3)c2C)cc1	-6	3.9	-11	-2.2	?	3	-3.8
COC(=O)c1ccccc1NC(=O)Cn1c(-c2nonc2N)nc2ccccc21	-4	8.1	-18	2.5	-1%&-5%	20	2.7
O=C(O)c1cn(Cc2ccccn2)c(=O)c2ccccc12	-14	-1.1	-4	5.6	-9%	6	-18
CCCCn1c(N)c(N(CCOC)C(=O)CN2C(=O)c3ccccc3C2=O)c(=O)[nH]c1=O	3	-1.8	11	5.7	-4%	1	4.7
O=C(c1ccc(-c2cccc([N+](=O)[O-])c2)o1)N1CCN(c2ccc([N+](=O)[O-])cc2)CC1	/	-2.6	/	/	2%	5	/
Cc1ccc(N(C(=O)CNC(=O)c2ccco2)C(C(=O)NC2CCCC2)c2ccncc2)c(C)c1 (centres undefined)	2	0.6	27	-6.4	/	10	-0.2
O=C(NCc1ccc(Cl)cc1Cl)c1ccc2nc[nH]c2c1	67	2.1	-1	2.8	27%	-8	-1.5
O=C(N=Nc1c(O)[nH]c2ccccc12)c1cc(-c2cccs2)[nH]n1	14	-4.7	9	-2.2	/	9	6.3
COc1ccc(C2C(C(=O)Nc3cccc(C)n3)c3ccccc3C(=O)N2C)cc1 (centres undefined)	-12	-3.3	5	-21	12%	-2	1.3
CNc1cc(C(F)(F)F)nc(-c2ccccn2)n1	-1	2.5	-2	3.5	4%	-3	-2.0
CCOC(=O)CSc1nnc(CNC(=O)c2ccccc2OC)n1-c1ccc(OC)cc1	/	0.6	9	-0.8	67%	10	9.2
COc1ccc(CNC(=O)C(C)N2CCN(c3ccc(C(C)=O)cc3)CC2)cc1 (centres undefined)	5	-5.0	-3	1.8	/	-1	-1.2
O=C(Nc1cc(S(=O)(=O)N2CCOCC2)ccc1O)c1ccc(S(=O)(=O)N2CCCCC2)cc1	1	-1.8	/	/	/	-4	-0.7
C[C@H]1CN([C@@H](C)CO)C(=O)c2cccc(NC(=O)c3cnccn3)c2O[C@@H]1CN(C)C(=O)Nc1ccc2c(c1)OCO2	-8	2.8	/	/	/	12	-1.9
CCOc1ccc2cc(C#N)c(SCC(=O)N3CCOCC3)nc2c1	-12	2.6	9	?	-279%	-12	-3.2
O=C(CC1(O)C(=O)N(Cc2ccc3c(c2)OCO3)c2ccccc21)c1ccccc1 (centres undefined)	-4	-3.2	10	5.0	27%	-5	-0.8
Cc1cc(C(=O)Nc2ccccc2C#N)n(-c2ccccc2)n1	-1	2.7	7	-4.3	0%	5	-4.6
O=C(COC(=O)c1ccc(F)cc1F)NCCC1=CCCCC1	10	-6.9	/	/	/	10	-0.9
COCCn1c(-c2ccc(F)cc2)nc2oc3cc(OC)ccc3c(=O)c2c1=O	2	5.6	-7	?	-2%	-2	-2.4
Cc1ccc(S(=O)(=O)N(Cc2cccc(F)c2)C(=O)N2CCN(C)CC2)cc1	/	1.1	-6	3.7	-1%	-11	-4.1
COc1ccc(NC(=O)CN(C)C(=O)/C=C/c2cn(-c3ccccc3)nc2-c2ccc(F)cc2)cc1	1	3.1	1	-0.4	0%	1	3.7
Cc1ccc(C(C)C)cc1OCC(=O)Nc1nnc(C2CC2)s1	-3	2.9	/	/	-2%	-4	6.0
CC(C)(CNS(=O)(=O)c1ccc2c(c1)OCCO2)N1CCOCC1	-14	2.8	6	-0.9	12%	-2	2.5
CC(C)(C)Cc1nnc(NS(C)(=O)=O)s1	2	0.1	5	-2.0	4%	0	0.9
COc1cccc(CNC(=O)c2cccc(Br)c2)c1	-3	-3.2	-22	30*	-4%	-1	-3.7
CCc1ccc(NC(=O)CCn2nc(C)c(S(=O)(=O)N3CCCCC3)c2C)cc1	-4	1.9	-3	0.0	/	-2	-2.7

As a working copy, two of the compounds above.
SMILES	ALR H2O2 inh	HNF4A DNA FP	Calb FLC	RanGTP-Imp inh	Vif A3G	B2AR ag	LANA-H2A inh
COc1ccc(CNC(=O)C(C)N2CCN(c3ccc(C(C)=O)cc3)CC2)cc1 (centres undefined)	5	-5.0	-3	1.8	/	-1	-1.2
O=C(Nc1cc(S(=O)(=O)N2CCOCC2)ccc1O)c1ccc(S(=O)(=O)N2CCCCC2)cc1	1	-1.8	/	/	/	-4	-0.7

Additional entries follow:
SMILES	ALR H2O2 inh	HNF4A DNA FP	Calb FLC	RanGTP-Imp inh	Vif A3G	B2AR ag	LANA-H2A inh
CC(=O)c1ccc(NC(=S)Nc2ccc3cn[nH]c3c2)cc1	-14	0.1	-3	2.7	8%	1	-11
COC(=O)c1cc(OC)c(OC)cc1N1C(=O)CC(C)(C)CC1=O	-5	-3.4	-2	0.4	-3%	-4	0.5
Cc1ccc(Nc2nc(NCCO)c3ccccc3n2)cc1C	14	-0.1	-2	-0.4	/	-12	-1.0
COc1ccc(OC)c(S(=O)(=O)Nc2ccc(F)cc2)c1	-5	-0.5	-1	3.2	6%	5	17
O=C(COc1ccccc1Br)NC(=O)NC1CCCC1	/	-2.1	/	/	-4%	-2	/
CCN(CC)CCN1C(=O)/C(=C\c2ccc(Cl)c([N+](=O)[O-])c2)SC1=Nc1ccc(OC)cc1	-5	0.3	10	-2.5	/	18	-1.6
O=C(COC(=O)Cc1ccc(Br)cc1)Nc1ccc(N2CCOCC2)cc1	-2	-2.2	/	/	9%	-2	4.3
CCN(Cc1ccccc1)C(=O)Cc1c[nH]c2ccccc12	1	3.9	8	2.2	3%	9	-5.9
CN(C)c1ccc(C(CNS(=O)(=O)c2ccc3ccccc3c2)c2c[nH]c3ccccc23)cc1 (centres undefined)	-1	4.7	10	-9.0	12%	-2	-2.7
O=C(CCC(=O)c1cccs1)OCC(=O)N1CCN(C(=O)c2ccco2)CC1	/	35*	-5	1.1	3%	-2	-11
COc1ccc(NS(=O)(=O)c2ccc3c(c2)NC(=O)CO3)c(OC)c1	-1	2.5	-6	1.2	2%	7	5.8
CN1CCc2c(n(CC(O)CNCc3ccccc3)c3ccccc23)C1=O (centres undefined)	-17	2.7	-77	-1.0	-12%	-1	-0.7
CCOC(=O)c1ccc(NC(=O)Nc2ccon2)cc1	/	-3.6	20	?	-13%	44*	3.0
Cc1ccc(S(=O)(=O)/N=C2/C=C(Sc3ncn[nH]3)C(=O)c3ccccc32)c(C)c1	-5	/	/	/	31%	/	-15
O=C1c2ccccc2C(=O)C1(CO)c1ccccc1	70	2.1	-3	4.6	-7%	-7	-7.4

Ordered by the number under Vif A3G (highest first): some entries from above.
Structure	ALR H2O2 inh	HNF4A DNA FP	RanGTP-Imp inh	Vif A3G	B2AR ag	LANA-H2A inh
Cc1ccc(S(=O)(=O)/N=C2/C=C(Sc3ncn[nH]3)C(=O)c3ccccc32)c(C)c1	-5	/	/	31%	/	-15
O=C(COC(=O)Cc1ccc(Br)cc1)Nc1ccc(N2CCOCC2)cc1	-2	-2.2	/	9%	-2	4.3
O=C(CCC(=O)c1cccs1)OCC(=O)N1CCN(C(=O)c2ccco2)CC1	/	35*	1.1	3%	-2	-11
O=C(COc1ccccc1Br)NC(=O)NC1CCCC1	/	-2.1	/	-4%	-2	/
O=C1c2ccccc2C(=O)C1(CO)c1ccccc1	70	2.1	4.6	-7%	-7	-7.4

Next compounds
SMILES	ALR H2O2 inh	HNF4A DNA FP	Calb FLC	RanGTP-Imp inh	Vif A3G	B2AR ag	LANA-H2A inh
NC(=O)CN(C/C=C/c1ccccc1)C/C=C/c1ccccc1	/	2.5	-4	4.6	/	-13	-2.1
CCc1ccccc1S(=O)(=O)Cc1ccc(C(=O)N2CCN(c3ccccc3OC)CC2)o1	/	0.3	-7	6.4	7%	-6	/
CCOc1ccc(-n2c(C)cc(C(=O)CCl)c2C)cc1	/	-2.1	91*	?	?	46*	4.0
CCOc1ccc(C(=S)N2CCCC2)c(OCC)c1	-15	-1.4	0	-0.5	-3%	-3	7.5
O=C(CCN1CCCCO1)N1CCCC(Nc2ccc(F)cc2)C1 (centres undefined)	95*	0.0	-4	-1.3	/	-3	3.5
O=C1O/C(=C\C(=O)N2CCOCC2)c2ccccc21	/	0.3	-2	-2.2	0%	15	-1.1
Cc1ccc2c(c1)CCCN2C(=O)c1ccncc1	-24	-0.7	-5	-1.0	16%	3	9.2
CCOC(=O)c1c(C)[nH]c(N=Nc2ccc(C)cc2)c1C	-13	1.1	-15	-3.5	18%	9	-3.6
CCCCN(C(=O)CSc1nc2ccccc2n1CC)C1CCS(=O)(=O)C1 (centres undefined)	2	3.3	/	/	-4%	-10	-7.6
COc1ccc(CCC(=O)N2CCN(c3ccccc3)CC2)cc1OC	21	0.9	2	1.0	-11%	-5	0.7
CN1CCN(C(=O)Nc2ccccc2)CC1	-2	-0.9	-1	-11	11%	4	4.7
CCOc1c(Cl)cc(/C=N/NC(N)=S)cc1OC	-3	0.5	-10	5.7	/	6	1.0
O=S(=O)(NCc1ccccc1)NCc1cccc(C(F)(F)F)c1	4	4.3	13	0.3	0%	0	0.1
